Bioassay records: PubChem BioAssay, several laboratories
Beta cell apopt: beta cell apoptosis inhibition. INS-1E cytokine-induced death, ATP luminescence, 48 h; percent of positive-control rescue, neutral wells zero. protection from apoptosis, % (no concentration beside the values). 300,000 tested, 0.8% active;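 active means all replicates at 75% or more, or half of them and the mean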;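 further: 0% = cytokine-treated negative control wells and 100% = positive control rescue; higher means more ATP so stronger rescue from cytokine killing; wells of about 40 µL received 100 nL stock; the first replicate is given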
AF4-AF9 inh: inhibitors of human MLL-AF4/AF9 interaction. P42568. AlphaScreen, biotin-AF4 peptide binding to FLAG-AF9. inhibition, % at 10 µM. 350,000 tested, 0.47% active;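 active means every replicate reaching a set inhibition limit, whatever the replicate mean, cut at about 25% in these data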;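 further: 0% = plate neutral control median and 100% = total signal loss; the record names both 10 and 1 µM as test concentration; the first replicate is given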
Target sequence (P42568 whole entry, looked up): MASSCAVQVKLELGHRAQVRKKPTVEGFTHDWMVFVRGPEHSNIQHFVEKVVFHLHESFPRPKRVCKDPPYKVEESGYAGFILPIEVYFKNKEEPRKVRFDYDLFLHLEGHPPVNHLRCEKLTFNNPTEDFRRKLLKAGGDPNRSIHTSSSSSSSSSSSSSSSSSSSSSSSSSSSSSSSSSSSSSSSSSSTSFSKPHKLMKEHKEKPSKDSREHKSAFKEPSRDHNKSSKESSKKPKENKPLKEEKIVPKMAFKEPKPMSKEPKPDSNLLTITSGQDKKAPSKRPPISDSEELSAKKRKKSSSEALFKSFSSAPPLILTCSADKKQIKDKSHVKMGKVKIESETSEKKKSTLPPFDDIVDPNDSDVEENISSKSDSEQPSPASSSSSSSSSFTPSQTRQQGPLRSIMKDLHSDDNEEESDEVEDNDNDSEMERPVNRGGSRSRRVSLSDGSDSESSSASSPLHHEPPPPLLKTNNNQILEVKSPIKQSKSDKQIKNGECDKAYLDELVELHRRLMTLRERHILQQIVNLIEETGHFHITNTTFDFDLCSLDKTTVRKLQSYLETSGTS
T cruzi inh: blocks replication of Trypanosoma cruzi; 300,000 tested, 1.4% active; inhibition, % (test concentration not listed); T. cruzi beta-gal in NIH3T3, luminescence, 90 h;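 active means mean inhibition across valid replicates above about 55%, limit read from the data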;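 further: signal also drops with host cell toxicity which is not excluded here; 0% = plate median of DMSO wells and 100% = zero luminescence signal; higher percent means less beta-gal luminescence so fewer parasites; stock transfer was 50 nL into about 50 µL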
Ecoli rRNA inh: inhibits bacterial ribosomal RNA function over humanized ribosomes. 350,000 tested, 1.6% active. GFP signal change (wild-type ribosome), % (concentration not given with the values). E. coli WT GFP vs humanized-ribosome RFP mutants, fluorescence, 24 h; active compounds read low; DMSO median 0, no signal -100;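 active means significant combined selectivity score with lowered wild-type GFP, culture density cut under 30%, mutant RFP and density less affected; inactive means any of these conditions unmet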; further: one replicate is shown; some compounds called inactive have numbers as strong as hits
UCH37 inh: blocks the human deubiquitinase UCH37; Q9Y5K5; purified proteasome/UCH37, Ub-AMC cleavage fluorescence; inhibition, % (test concentration not listed); 330,000 tested, 0.33% active; AID 588478;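 active means mean of two replicates above 20%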;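 further: 0% = compound-free wells with enzyme and 100% = wells lacking proteasome; stock transfer was 100 nL into about 20 µL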
Target sequence (Q9Y5K5 whole entry, looked up): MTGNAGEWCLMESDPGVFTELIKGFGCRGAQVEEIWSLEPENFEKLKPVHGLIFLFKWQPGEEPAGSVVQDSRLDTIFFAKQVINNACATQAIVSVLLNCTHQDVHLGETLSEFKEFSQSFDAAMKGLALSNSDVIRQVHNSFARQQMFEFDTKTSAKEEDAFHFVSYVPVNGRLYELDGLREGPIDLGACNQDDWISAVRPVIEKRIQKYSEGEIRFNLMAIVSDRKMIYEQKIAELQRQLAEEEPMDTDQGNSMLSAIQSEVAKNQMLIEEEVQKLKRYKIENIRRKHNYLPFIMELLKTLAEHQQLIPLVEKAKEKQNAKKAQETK
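Material: Human UCH37 enzyme supplied as purified proteasome complex | Schedule: 30 min compound-proteasome preincubation then 25 min substrate reaction, room temperature | Detection: AMC fluorescence from Ub-AMC cleavage, excitation 355 nm, emission 460 nm | Benchmarks: Wells without proteasome as full block, compound-free enzyme plus substrate as uninhibited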
E coli growth: blocks Escherichia coli growth. OD600, 23 h; active compounds read low. OD600 absorbance (concentration not given with the values). 330,000 tested, 0.21% active. AID 1053175;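 active means OD600 absorbance below the run mean of sample wells minus 3.6 SD, in any replicate, cut at about 0.56 in these data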;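 further: stock transfer was 300 nL into about 60 µL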
A1 inh: inhibitors of the anti-apoptotic protein A1, read as caspase activation; MEF A1-2A-BIM cells, Caspase-Glo 3/7 luminescence, 3 h; percent of clofoctol response, vehicle zero; caspase activation, % (no concentration beside the values); 330,000 tested, 0.066% active; AID 2462;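 active means over half of replicate activation scores above 10%, or exactly half above 10 with the replicate mean above 10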;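 further: wells of about 30 µL received 50 nL stock; many hits fall short of the cut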
FGF22 binding: binders of recombinant human FGF22 by thermal shift; SYPRO orange fluorescence; percent of sucrose octasulfate shift, DMSO zero; 340,000 tested, 1.5% active; Q9HCT0; calls only at 9.99 µM;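 active means melting point raised past a set limit in the mean and every replicate; three in four hits are not shown here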
Target sequence (Q9HCT0 whole entry, looked up): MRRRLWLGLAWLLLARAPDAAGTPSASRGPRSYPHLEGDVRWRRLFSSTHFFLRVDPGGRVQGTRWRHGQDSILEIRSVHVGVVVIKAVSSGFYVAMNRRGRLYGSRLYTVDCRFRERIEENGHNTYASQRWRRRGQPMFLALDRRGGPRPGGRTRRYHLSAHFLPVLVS
Ecoli rRNA inh OD600: also measured in Ecoli rRNA inh; calls as there; OD600 change, %; measured here: OD600 growth;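 optical density of the mix in the first replicate; 0 = DMSO median and -100 = no signal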
Ecoli rRNA inh RFP: also measured in Ecoli rRNA inh; calls as there; RFP signal change, %; measured here: RFP humanized mutant strains;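 first replicate; 0 = DMSO median and -100 = no signal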
An asterisk follows results filed as active; i = inactive; / = no result given. Only part of the results is shown; rates above refer to the full screens.

Preview (six entries):
SMILES	Beta cell apopt	AF4-AF9 inh	T cruzi inh	Ecoli rRNA inh	Ecoli rRNA inh OD600	Ecoli rRNA inh RFP	UCH37 inh	E coli growth	A1 inh	FGF22 binding
CCOc1ccccc1NC1=NC2CS(=O)(=O)CC2S1 (centres undefined)	-4	-18	-2	7	1	0.7	0.4	0.69	0.9	i
Cc1cc(C)nc(/N=C(\N)Nc2ccc(S(=O)(=O)Nc3nc(C)cc(C)n3)cc2)n1	-5	/	-7	/	/	/	0.6	0.65	0.5	/
COc1ccccc1OCc1nc(Cc2ccc(Cl)cc2)no1	0	/	2	/	/	/	2.7	0.75	-0.3	/
Cc1occc1-c1nnc(SCC(=O)N2CCOCC2)n1Cc1ccco1	-9	/	-6	/	/	/	3.6	0.73	0.7	/
NC(=O)C1CCN(CC(O)CSc2ccccc2)CC1 (centres undefined)	-3	-4.8	-4	4	7	-1.3	1.2	0.67	0.8	i
Cc1ccc(S(=O)(=O)Cc2ccc(C(=O)N3CCN(Cc4ccccc4)CC3)o2)cc1	2	5.8	6	-4	4	7.1	3.7	0.69	-0.3	i

The list itself, repeating the preview:
SMILES	Beta cell apopt	AF4-AF9 inh	T cruzi inh	Ecoli rRNA inh	Ecoli rRNA inh OD600	Ecoli rRNA inh RFP	UCH37 inh	E coli growth	A1 inh	FGF22 binding
CCOc1ccccc1NC1=NC2CS(=O)(=O)CC2S1 (centres undefined)	-4	-18	-2	7	1	0.7	0.4	0.69	0.9	i
Cc1cc(C)nc(/N=C(\N)Nc2ccc(S(=O)(=O)Nc3nc(C)cc(C)n3)cc2)n1	-5	/	-7	/	/	/	0.6	0.65	0.5	/
COc1ccccc1OCc1nc(Cc2ccc(Cl)cc2)no1	0	/	2	/	/	/	2.7	0.75	-0.3	/
Cc1occc1-c1nnc(SCC(=O)N2CCOCC2)n1Cc1ccco1	-9	/	-6	/	/	/	3.6	0.73	0.7	/
NC(=O)C1CCN(CC(O)CSc2ccccc2)CC1 (centres undefined)	-3	-4.8	-4	4	7	-1.3	1.2	0.67	0.8	i
Cc1ccc(S(=O)(=O)Cc2ccc(C(=O)N3CCN(Cc4ccccc4)CC3)o2)cc1	2	5.8	6	-4	4	7.1	3.7	0.69	-0.3	i
O=C(Cn1cc(C(F)(F)F)ccc1=O)N1CCCc2ccccc21	4	-0.9	/	3	8	-2.1	0.5	0.68	1.4	i
COc1cc(C)ccc1OCc1cc(C(=O)NC(C)Cn2cncn2)no1 (centres undefined)	3	0.1	-11	9	7	7.5	/	/	-1.9	i
CC(=O)c1c(N)n(C)c(=O)n(C)c1=O	-6	-18	3	6	6	3.5	0.6	0.7	0.9	/
COc1cccc(NC(=O)c2ccc(NCCCN3CCC(C)CC3)c([N+](=O)[O-])c2)c1	-1	4.0	22	-25*	-7.3*	1.2*	3.5	0.68	0.7	i
NC(=O)/C=C/C(=O)Nc1ccc(Cl)cc1	-13	3.4	-70	13	2	1.6	2.8	0.69	-0.5	/
COc1ccc2oc(C(=O)OC(C)C(=O)Nc3ccc(N4CCOCC4)cc3)c(C)c2c1 (centres undefined)	-1	-3.5	/	10	8	1.6	-9.3	0.74	0.2	i
CCc1[nH]nc2c1C(c1cccnc1)C(C#N)=C(N)O2 (centres undefined)	-4	/	-6	/	/	/	2.9	0.66	-0.7	/
COc1cc(C(=O)Nc2ccccc2-c2nnn(CC(N)=O)n2)cc(OC)c1OC	-2	/	11	/	/	/	-5.6	0.74	0.2	/
CCOc1ccc(N2C(=O)CC(N(Cc3ccco3)C(=O)CC)C2=O)cc1 (centres undefined)	-5	-2.6	1	1	8	-1.6	3.0	0.69	-0.3	i
COc1ccc(NC(C)=O)cc1NC(=O)CN1CCN(CC(=O)Nc2ccc(Cl)cc2)CC1	-3	/	/	/	/	/	4.0	0.81	-0.1	/
NS(=O)(=O)c1ccc(CNC(=O)c2ccc(S(=O)(=O)NCc3ccco3)cc2)cc1	-2	-0.1	/	15	11	1.5	-0.7	0.68	0.3	i
COc1ccc(NS(=O)(=O)c2cccc(C(=O)O)c2)cc1	-4	-21	-12	8	4	-0.7	1.5	0.65	0.2	/
CCOc1ccc(NC(=O)CSc2n[nH]c(=O)n2-c2ccccc2)cc1	6	/	2	/	/	/	0.9	0.67	0.1	/
COC(=O)C(C)N=Cc1ccccc1 (centres undefined)	-4	0.9	3	8	6	-2.1	3.9	0.69	0.1	i
COc1ccc(C)cc1NC(=O)CN1CCN(c2ccccn2)CC1	1	-4.2	-2	-6	-26	-2.8	3.3	0.69	0.3	i
Cc1ccccc1OCCC(=O)N1CCN(S(=O)(=O)c2ccccc2F)CC1	-1	-6.0	1	-19	-16	0.9	2.2	0.73	0.7	i
CC1=NNC(=O)C1CC(=O)N/N=C/C=C/c1ccccc1 (centres undefined)	-7	0.5	3	9	10	-0.6	/	/	0.5	i
Cc1ccc(C(=O)N/C(=C\c2cccc([N+](=O)[O-])c2)C(=O)OCN2C(=O)c3ccccc3C2=O)cc1	-9	0.6	-20	17	18	-4.1	/	/	-0.4	i
CCOc1cc(C(C(=O)NCC2CCCO2)N(C(=O)Cn2nnc3ccccc32)c2ccccc2C(C)=O)ccc1O (centres undefined)	-4	0.7	8	3	5	0.5	2.0	0.66	0.1	i
Going on with the list.
SMILES	Beta cell apopt	AF4-AF9 inh	T cruzi inh	Ecoli rRNA inh	Ecoli rRNA inh OD600	Ecoli rRNA inh RFP	UCH37 inh	E coli growth	A1 inh	FGF22 binding
O=C(c1cc2c(=O)n3ccccc3nc2s1)N1CCN(Cc2ccccc2)CC1	-1	-1.0	8	-2	5	-0.7	i	0.69	-0.1	i
Cc1cc(N2CCOCC2)n2cc(-c3ccc(F)cc3)nc2n1	6	1.6	3	-2	0	-0.6	-214	0.67	-0.3	i
Cn1c(N)c(C(=O)COC(=O)C(Cc2ccccc2)NC(=O)c2ccccc2)c(=O)n(C)c1=O (centres undefined)	1	2.9	-7	11	-3	-5.7	0.3	0.63	1.0	i
O=C1NC(=S)N(C(=O)c2ccc(F)cc2)/C1=C/c1cccnc1	5	0.1	1	/	/	/	9.9	0.71	0.3	i
CCn1c(SCC(=O)Nc2ccc(N3CCOCC3)cc2)nnc1-c1ccncc1	-2	1.7	-16	-31	-66	-13	3.5	0.72	-0.2	i
Cc1ccc(OCC(=O)Nc2ccccc2-c2ccccc2NC(=O)COc2ccc(C)cc2)cc1	6	/	20	/	/	/	-2.1	0.74	0.2	/
COc1ccc(NC(=O)c2ccc[n+]([O-])c2)cc1	0	1.6	-25	6	7	0.4	3.3	0.7	1.5	i
O=C(NCCCc1ccccc1)c1cc([N+](=O)[O-])ccc1Cl	6	1.5	-23	6	5	-0.7	0.3	0.68	-0.4	i
COc1ccc(-c2cc(C(=O)O)c3sc(N4CCCCC4)nc3n2)cc1OC	-3	/	-6	/	/	/	i	0.61	0.3	/
CN(C)S(=O)(=O)c1ccc(C(=O)NCCc2ccco2)cc1	-5	0.6	-5	-7	-2	-2.7	0.9	0.6	-0.3	i
O=C(COc1ccccc1Cl)NCCNC(=O)c1ccco1	/	-5.5	1	-2	-3	1.2	1.5	0.69	0.1	i
CCOC(=O)c1cc(CC)sc1NC(=O)COC	2	/	/	/	/	/	-2.2	0.68	1.3	/
COC(=O)NNC(=O)/C=C/c1ccccc1	2	/	-38	/	/	/	7.3	0.68	0.3	/
COC(=O)c1ccc(OCC(O)CN2CCN(C(=O)c3ccco3)CC2)c(OC)c1 (centres undefined)	0	-9.9	-12	2	11	0.9	0.9	0.65	-0.6	i
COc1ccc(/C=N/Nc2nc3ccccc3[nH]2)cc1OC	21	15	-18	-44	-50	-16	/	/	-0.9	i
C=CCNC(=O)/C(C#N)=C\c1cc(Cl)c(OCC)c(OC)c1	-4	/	-9	/	/	/	2.9	0.72	-0.6	/
C/C(=N\NC(=O)c1c(-c2ccccc2Cl)noc1C)c1cccc(NC(=O)C(C)C)c1	-1	-0.9	-6	-10	-31	-16	/	/	0.8	i
CCCC(=O)Nc1c(-c2ccccc2Cl)c(=O)c2ccccc2n1C	-1	-1.6	-3	9	4	6.7	0.2	0.69	-0.4	i
Cc1ccc(OC(=O)CCC(=O)Nc2ccc(C)c(C)c2)cc1	-3	-4.0	13	8	4	-3.7	1.5	0.7	0.2	i
CCOC(=O)C(C)Oc1ccc(OCc2ccccc2)cc1 (centres undefined)	-4	-3.7	-7	-14	-8	-5.5	-0.3	0.64	-4.3	i
Cc1ccc2c([N+](=O)[O-])c(C)ccc2n1	-3	/	1	/	/	/	2.2	0.67	-0.2	/
CCOC(=O)C1CCCN(C(=O)COC(=O)c2ccc(C#N)cc2)C1 (centres undefined)	-2	-0.3	-18	-1	2	-4.2	1.1	0.69	1.2	i
Clc1ccc(-c2cnnc(-c3ccccn3)n2)cc1	0	-2.3	/	-21	-61	-11	2.1	0.65	-1.7	i
COC(=O)c1cccc(C(=O)Nc2ccc(C)cc2Br)n1	-11	/	-17	/	/	/	0.0	0.65	-0.7	/
CCn1c(C(O)c2cc(OC)c(OC)c(OC)c2)nc2ccccc21 (centres undefined)	/	-2.5	-8	6	9	0.6	2.3	0.65	-0.1	i

Laid out differently: results already given.
The line under a structure holds: Beta cell apopt | AF4-AF9 inh | T cruzi inh | Ecoli rRNA inh | Ecoli rRNA inh OD600 | Ecoli rRNA inh RFP | UCH37 inh | E coli growth | A1 inh | FGF22 binding
CCn1c(SCC(=O)Nc2ccc(N3CCOCC3)cc2)nnc1-c1ccncc1
    -2 | 1.7 | -16 | -31 | -66 | -13 | 3.5 | 0.72 | -0.2 | i
Cc1ccc(OCC(=O)Nc2ccccc2-c2ccccc2NC(=O)COc2ccc(C)cc2)cc1
    6 | / | 20 | / | / | / | -2.1 | 0.74 | 0.2 | /

Next section.
SMILES	Beta cell apopt	AF4-AF9 inh	T cruzi inh	Ecoli rRNA inh	Ecoli rRNA inh OD600	Ecoli rRNA inh RFP	UCH37 inh	E coli growth	A1 inh	FGF22 binding
Cc1cc(C)n2ncc(C(=O)Nc3cccc(O)c3)c2n1	1	-0.7	-14	7	14	1.9	1.0	0.67	0.8	i
CC(C)(C)c1ccc(COC(=O)Nc2ccc(F)cc2)cc1	3	1.4	5	5	5	-2.7	4.3	0.71	0.6	i
CC(=O)Nc1cccc(/C(C)=N/NC(=O)c2ccc(Cl)cc2Cl)c1	-5	-0.1	-9	7	-5	-15	/	/	-0.7	i
CCC(CC)c1nnc(NC(=O)C2CC(=O)N(c3ccc4c(c3)OCCO4)C2)s1 (centres undefined)	-5	2.7	6	-5	-24	2.8	0.3	0.67	0.1	i
CCOC(=O)CNC(=O)N1CCCC(C(=O)c2ccccc2SC)C1 (centres undefined)	-10	-2.2	-3	9	11	1.3	5.9	0.71	-0.3	i
CN(C)c1nc2ccc(OCCN3CCCCC3)cc2s1	-2	/	24	/	/	/	4.0	0.71	-0.9	/
COc1ccc(O)c(C(=O)c2cnc3nc4ccccc4n3c2)c1	83*	-5.0	3	-11	-5	-0.4	-24	0.68	0.2	i
O=C(Cc1ccccc1)NC(=S)Nc1ccc2oc(-c3ccccc3)nc2c1	3	-6.2	12	6	24	-7.6	0.6	0.7	-0.2	i
CCO[C@H]1OC(C(=O)NCc2ccccc2)=C[C@@H](c2coc3ccccc3c2=O)[C@@H]1CCCO	0	-1.1	7	-9	-10	0.8	-1.7	/	-0.6	i
